CBX7 inh – inhibitors of human CBX7 binding to H3K27me3 peptide; O95931; AID 1224903; 1.1% of 66,000 active; AlphaScreen His6-CBX7 / biotin-H3K27me3 peptide binding; hits give low values; normalised signal (fraction of DMSO) (no concentration beside the values); in the data active = normalised signal below about 0.5;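 also: 100 nL library stock added to about 20 µL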
Target sequence (O95931 whole entry, looked up): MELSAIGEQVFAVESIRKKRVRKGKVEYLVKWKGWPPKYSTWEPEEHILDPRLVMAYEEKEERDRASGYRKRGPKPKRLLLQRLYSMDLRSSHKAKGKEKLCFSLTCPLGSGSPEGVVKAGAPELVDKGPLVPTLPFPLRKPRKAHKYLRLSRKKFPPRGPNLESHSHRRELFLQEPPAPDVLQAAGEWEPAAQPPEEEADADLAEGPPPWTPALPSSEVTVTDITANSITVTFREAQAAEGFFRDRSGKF
CBX7 inh z-score – recorded beside CBX7 inh, whose call it bears; z-score; measured here: z-score of CBX7 signal; some inactives read as strong as hits; reference of the scale not given here;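 same signal on another scale; lower means less binding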
An asterisk follows results filed as active. Not all compounds are listed; count on the stated rates, not on these rows.

compound | CBX7 inh | CBX7 inh z-score
COc1cccc(-c2nc(CSCC(=O)NCC3CCCO3)c(C)o2)c1 (configuration not stated) | 1.06 | 0.703
O=C(CN1C(=O)COc2ccc(S(=O)(=O)N3CCOCC3)cc21)NCCCN1CCCC1=O | 0.995 | -0.222
CN(C)CCN1C(=O)c2ccccc2C1C(=O)NC1CCCCC1 (configuration not stated) | 1.51 | 3.72
O=C(NC1CCCCCCC1)c1ccc(CNc2c(N3CCOCC3)c(=O)c2=O)cc1 | 0.992 | -0.0178
COc1cc(NC(=O)CCc2c(C)nc3cc(-c4cc(OC)cc(OC)c4)nn3c2C)cc(OC)c1 | 0.926 | -1.81
CCc1nnc(NS(=O)(=O)c2ccc(NC(=O)C34CC5CC(CC(C5)C3)C4)cc2)s1 | 1.06 | 2.36
Cc1ccc(S(=O)(=O)c2cn(CC(=O)Nc3ccc(F)c(Cl)c3)c3ccccc3c2=O)cc1 | 1 | 0.0529
O=C(Nc1nnc(-c2cccnc2)s1)c1ccc(Cl)cc1Cl | 1.03 | 0.0862
O=C(COc1ccc(Cl)cc1)Nc1c(C(=O)c2ccccc2)oc2ccccc12 | 1.11 | 0.474
Cc1cccc(-n2ccnc2SCC(=O)Nc2cc(C(F)(F)F)ccc2Cl)c1C | 0.989 | -0.0113
O=C(NCCN1CCc2ccccc2C1)c1cc(=O)[nH]c2ccc(S(=O)(=O)N3CCCCC3)cc12 | 0.981 | -0.222
c1ccc(Nc2nc(-c3cccs3)cs2)nc1 | 0.856 | -2.32
Cc1ccc(-c2nc(C(=O)NCCCc3ccccc3)c(C)o2)cc1 | 1.12 | 1.32
COc1ccc(NC(=O)CSc2nc(-c3ccc(Cl)cc3)cn2-c2ccc(C)cc2)cc1 | 1.02 | 0.529
NC(=O)C1CCN(C(=O)c2cccc3sc(N4CCCc5ccccc54)nc23)CC1 | 1.03 | 0.746
Cc1cccc(Cn2c(SCc3ccc(F)cc3)nc3ccncc32)c1 | 1.06 | 0.549
Cc1ccccc1Nc1c(-c2ccccc2)nc2ccc(Cl)cn12 | 1.14 | 1.13
CCN(c1ccccc1)S(=O)(=O)c1ccc2[nH]cc(C(=O)NC3CCCCC3)c(=O)c2c1 | 1.01 | 0.264
Cc1ccccc1NC(=O)C(NS(=O)(=O)c1cccs1)C(C)C (configuration not stated) | 1.01 | 0.143
c1ccc(Oc2cccc(CN3CCN(Cc4ccccn4)CC3)c2)cc1 | 0.777 | -3.46
COC(=O)c1c[nH]n2c(NC3CCCCC3)c(-c3ccc(C)cc3)nc12 | 0.823 | -3.49
CCc1ccc(-c2nc(CSCC(=O)NCc3ccccc3OC)c(C)o2)cc1 | 1.02 | 0.15
O=C(CN1C(=O)CSc2ccc(S(=O)(=O)N3CCOCC3)cc21)NCCCN1CCOCC1 | 1.03 | 0.525
COC(=O)c1ccccc1NC(=O)CCc1c(C)nc2cc(-c3ccccc3)nn2c1C | 0.987 | -0.603
COc1ccc2nc(C)cc(Nc3ccc(Cl)cc3)c2c1 | 0.942 | -1.26
OC(c1ccc(F)cc1)(c1ccc(F)cc1)c1cccnc1N1CCCCC1 | 1.05 | 1.47
O=C(Nc1cccc2c1C(=O)NC2=O)c1ccc(S(=O)(=O)N2CCCCC2)cc1 | 0.896 | -0.489
O=C(Cn1ncc2c1-c1ccccc1OC2)NCCCN1CCc2ccccc2C1 | 0.991 | -0.251
COc1ccc2[nH]cc(CCNC(=O)NC3CCCCC3)c2c1 | 1.02 | 0.608
O=C(Nc1ccc(F)c(F)c1)c1ccc(F)c(S(=O)(=O)N2CCOCC2)c1 | 0.973 | -0.292
O=S(=O)(c1ccc(-c2csc(Nc3ccc(Br)cc3)n2)cc1)N1CCCC1 | 1.03 | 0.97
O=C(NCc1ccc(Cl)cc1)c1cc2c(s1)CS(=O)(=O)C2 | 1.14 | 2.71
CC(=O)c1cc(=O)n(-c2ccccn2)c(C)c1C(=O)Nc1ccccn1 | 1.09 | 1.01
Cc1ccccc1OCCCn1c(C(C)O)nc2ccccc21 (configuration not stated) | 1.01 | 0.437
O=C(Nc1ccc(F)cc1F)c1n[nH]c(=O)c2ccccc12 | 1.08 | 0.469
Cc1ccc(CNC(=O)CCc2c(C)nc3cc(-c4ccccc4)nn3c2C)cc1 | 1.06 | 0.97
O=C(Nc1ccccc1)N1CCCC2CCCCC21 (configuration not stated) | 1.02 | 0.891
Cc1ccc(-c2noc(COc3cc(C)cc(C)c3)n2)cc1 | 1.2 | 1.78
Cn1c(CCCNC(=O)c2ccccc2)nc2ccccc21 | 1.07 | 0.957
COC(=O)c1ccccc1NC(=O)c1cc2c(-c3ccc(OC)c(OC)c3)nn(C)c2s1 | 0.999 | -0.0403
Cc1cc(N2CCC(C)CC2)nc2ccc(NC(=O)c3cccc(C(F)(F)F)c3)cc12 | 1.03 | 0.35
COc1ccc(-c2noc(CCC(=O)Nc3ccc(C(C)C)cc3)n2)cc1 | 1.08 | 2.1
Cc1onc(-c2ccccc2Cl)c1C(=O)Nc1ccc(Cl)cc1 | 1.13 | 0.585
Cc1cccc(-n2c(Cc3cc(=O)[nH]c(=O)[nH]3)nnc2SCC(=O)Nc2cccc(C)c2C)c1 | 1.02 | 0.0924
CN(C)c1ccc(C(=O)CC2(O)C(=O)N(Cc3ccc(Cl)cc3)c3ccccc32)cc1 (configuration not stated) | 0.98 | -1.01
O=C(NC1CCCCCC1)C1c2ccccc2C(=O)N1CCCN1CCOCC1 (configuration not stated) | 1.05 | 0.188
CC(C)NC(=O)Cn1nc(Cc2ccncc2)c2ccccc2c1=O | 0.928 | -0.852
Cc1ccccc1CN1C(=O)C(O)(CC(=O)c2ccccc2)c2ccccc21 (configuration not stated) | 0.909 | -1.16
O=C(NCc1ccc(F)cc1)C1CCN(C(=O)c2cc3sccc3n2Cc2ccc(F)cc2)CC1 | 0.974 | -1.06
Fc1cccc(Cl)c1Cc1noc(/C=C/c2ccc(Br)cc2)n1 | 1.11 | 0.112
O=C(O)Cc1sc(Nc2cccc(Br)c2)nc1-c1ccccc1 | 0.971 | -0.728
COc1ccc(Nc2c3c(nc4ccc(C)cc24)CCC3)cc1 | 0.538 | -9.83
Cc1ccc(-c2nn(C)c(=O)c3ccccc23)cc1S(=O)(=O)N1CCCCC1 | 0.835 | -1.89
Cc1ccc(NC(=O)COc2ccc(-c3nn(C)c(=O)c4ccccc34)cc2)cc1 | 0.958 | -1.89
O=C(NCc1ccc2c(c1)OCO2)C1CCCN(S(=O)(=O)c2cccs2)C1 (configuration not stated) | 0.933 | -1.2
CCOC(=O)c1cccc(Nc2nc(-c3ccccc3)nc3ccccc23)c1 | 1.08 | 3.3
Cc1cccc(-c2nc(CSCC(=O)NCCN3CCN(c4cccc(Cl)c4)CC3)c(C)o2)c1 | 0.738 | -4.92
CCn1c(C(=O)N2CCC(C(=O)NCCN3CCOCC3)CC2)cc2sccc21 | 1.04 | 0.175
CCOc1ccc2nc(N3CCCC(C(=O)N4CCN(c5cccc(C)c5C)CC4)C3)sc2c1 (configuration not stated) | 0.822 | -4.81
O=c1[nH]c(CN2CCCC3(CCCCC3)C2)nc2c1C1(CCCCC1)Cc1ccccc1-2 | 1.01 | 0.142

Complete entries from above.
COc1ccc(Nc2c3c(nc4ccc(C)cc24)CCC3)cc1 in the list: CBX7 inh = 0.538; CBX7 inh z-score = -9.83
O=C(NCc1ccc(Cl)cc1)c1cc2c(s1)CS(=O)(=O)C2 in the list: CBX7 inh = 1.14; CBX7 inh z-score = 2.71

(list continues)
Values run as follows: CBX7 inh	CBX7 inh z-score
O=C(NCCc1ccc(Cl)cc1)c1csc2c1CCCCC2
    1.01	0.466
Clc1ccc(Nc2c(-c3ccccn3)nc3ccc(Cl)cn23)cc1
    0.921	-1.02
CCS(=O)(=O)N1CCC(C(=O)NCCc2ccc(Cl)cc2)CC1
    1.03	1.02
O=C(Cn1ncc2c1-c1ccccc1OC2)N1CCCCC1
    1.04	0.511
COc1ccc(/C=C/c2nc3ccccc3c(=O)n2Cc2ccccc2)cc1
    1.25	11.5
Cc1ccc2c(c1)-c1c(cnn1CC(=O)NCCCN1CCN(c3ccc(F)cc3)CC1)CO2
    0.953	-0.817
CCOC(=O)N1CCC(NC(=O)c2nc(-c3cccc(OC)c3)oc2C)CC1
    1.1	0.658
Cc1cc2cc(CCNC(=O)c3ccccc3Cl)c(=O)[nH]c2cc1C
    1.04	1.57
O=C(CN1CCN(Cc2ccccc2Cl)C1=O)N1CCN(c2ccccn2)CC1
    0.918	-1.18
COc1ccc(-n2c(C)nc3c(cnn3-c3ccc(C)cc3)c2=O)cc1Cl
    0.831	-2.59
COc1cc2[nH]c(=O)n(Cc3ccc(C(=O)NCCCN4CCN(C)CC4)cc3)c(=O)c2cc1OC
    1.06	1.58
O=C(COc1ccc(Cl)cc1)Nc1ccc(-c2nc3ncccc3o2)cc1
    1.02	0.456
O=C(NCCC1=CCCCC1)c1ccc(NC2=NC3CS(=O)(=O)CC3S2)cc1 (configuration not stated)
    0.892	-0.818
O=C(NCC1CCCO1)C1CC(=O)N(c2ccc(Br)cc2)C1 (configuration not stated)
    1.03	1.25
Cc1ccccc1Nc1c(-c2cccc(Br)c2)nc2ccc(Cl)cn12
    0.788	-2.17
Brc1ccc(-n2cc(-c3ccccc3)c3c(NCc4ccccn4)ncnc32)cc1
    0.773	-5.75
CCN1C(=O)c2ccccc2S(=O)(=O)c2ccc(C(=O)N(C)Cc3ccccc3)cc21
    0.903	-2.69
CCOc1ccc(CCNC(=O)C2CCCN(S(C)(=O)=O)C2)cc1OCC (configuration not stated)
    1.08	1.24
CCCCN(CC)C(=O)c1c[nH]c2ccc(S(=O)(=O)N(C)c3ccc(F)cc3)cc2c1=O
    1.11	0.995
CN(C)c1ccc(C(O)Cc2nc3ccccc3n2C)cc1 (configuration not stated)
    1	0.0705
COc1ccc(-c2cc3nc(C)c(CCC(=O)N4CCCC4)c(C)n3n2)c(OC)c1
    1.13	1.47
O=C(CCCN1C(=O)c2cccnc2C1=O)N1CCN(c2ccccc2F)CC1
    0.342*	-6.29*
CCC(Cc1ccccc1)NC(=O)CN1C(=O)CSc2ccc(S(=O)(=O)N(CC)CC)cc21 (configuration not stated)
    1.08	2.71
CCN(CC)S(=O)(=O)c1ccc(C(=O)N2CC(=O)Nc3ccc(F)cc3C2c2ccccc2)cc1 (configuration not stated)
    0.83	-0.352
COc1ccc(CN2CCN(Cc3cccc(Cl)c3)CC2)c(OC)c1OC
    0.949	-0.873
O=C(Nc1nnc(Cc2ccccc2F)s1)c1ccccc1Cl
    0.987	-0.514
CCOc1ccc(-c2cc(CCCC(=O)NCCc3ccc(OC)c(OC)c3)no2)cc1
    1.12	0.529
CCN1CCN(C(=O)c2ccc3c(=O)n(CCc4ccccc4)c(=O)[nH]c3c2)CC1
    0.998	-0.0505
COc1cccc(-c2cc(C(=O)Nc3cccnc3)no2)c1
    0.937	-1.37
CC1CCCC(C)N1C(=O)Cn1ncc2c1-c1ccccc1OC2 (configuration not stated)
    1.09	0.525
O=C(Cc1c(O)c2ccccc2[nH]c1=O)NCc1ccccc1
    1.09	0.547
CCn1c(C(=O)NCCc2ccc(OC)c(OC)c2)cc2sc(Cl)cc21
    0.953	-1.85
Cc1ccc2nc(N3CCC(C(=O)NCc4cccc(Cl)c4)CC3)sc2c1
    1.01	0.509
Cc1cc(C)c(Cc2c(C)nc3c(C(=O)NCc4ccccn4)cnn3c2C)c(C)c1
    0.939	-1.81
CCc1ccc(NC(=O)CSc2nc3ccccc3nc2Cc2ccc(F)cc2)cc1
    1.08	1.34
Cc1cccc(NC(=O)CSc2nnc(Cc3cc(=O)[nH]c(=O)[nH]3)n2-c2ccc(F)cc2)c1
    1	0.0149
O=S(=O)(c1ccc2nc(-c3ccccc3)[nH]c2c1)N1CCCCCC1
    0.798	-0.267
CC1(C)CC(=O)c2cc(C(=O)N3CCOCC3)c(=O)n(-c3ccc(Cl)cc3)c2C1
    0.969	-0.132
CCOc1ccc(OCC)c(NC(=O)C2CCCN(S(=O)(=O)c3cccc4cccnc34)C2)c1 (configuration not stated)
    0.95	-1.33
NS(=O)(=O)c1ccc(CNC(=O)NC2(c3ccccc3)CC2)cc1
    1.07	1.19

Molecules listed so far with a CF3 group (two):
Values run as follows: CBX7 inh	CBX7 inh z-score
Cc1cccc(-n2ccnc2SCC(=O)Nc2cc(C(F)(F)F)ccc2Cl)c1C
    0.989	-0.0113
Cc1cc(N2CCC(C)CC2)nc2ccc(NC(=O)c3cccc(C(F)(F)F)c3)cc12
    1.03	0.35

More structures follow.
Values run as follows: CBX7 inh	CBX7 inh z-score
O=C(CN1CCN(c2ccccc2)CC1)Nc1c2c(nc3c1CCC3)CCCC2
    0.978	-0.248
COc1cccc(-c2nc(CS(=O)(=O)CC(=O)Nc3ccc(Cl)cc3)c(C)o2)c1
    1.01	0.175
CNC(=O)c1ccccc1NC(=O)c1cccc(S(=O)(=O)N2CCOCC2)c1
    0.999	-0.0113
O=C(NCCCN1CCOCC1)c1ccc2c(c1)N(Cc1cccc(Cl)c1)C(=O)CS2
    1.04	1.38
COCCn1c(SCC(=O)Nc2ccc(C)cc2)nnc1-c1c[nH]c2ccccc12
    1.06	0.41
O=C(COc1ccc(F)cc1)Nc1c(C(=O)c2ccc(Br)cc2)oc2ccccc12
    1.06	0.277
Cc1nc2c(c3c1[nH]c1ccccc13)C(=O)CCC2
    1.08	2.89

Taken from above.
Reading of c1ccc(Nc2nc(-c3cccs3)cs2)nc1 in CBX7 inh z-score: -2.32
Reading of Cc1ccc2c(c1)-c1c(cnn1CC(=O)NCCCN1CCN(c3ccc(F)cc3)CC1)CO2 in CBX7 inh z-score: -0.817
